WNV protease inh: blocks West Nile virus NS2B-NS3 protease activity. P06935. WNV NS2B-NS3 protease, fluorogenic substrate Ex360/Em465; stronger effect = lower value. z-score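 (tested at a level between 10 and 100 µM)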. 65,000 tested, 0.18% active;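 active means z-score at -3 or under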;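 further: score is relative to mean and spread of the compound wells of a plate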
Target sequence (P06935 1371-1501 limits assumed): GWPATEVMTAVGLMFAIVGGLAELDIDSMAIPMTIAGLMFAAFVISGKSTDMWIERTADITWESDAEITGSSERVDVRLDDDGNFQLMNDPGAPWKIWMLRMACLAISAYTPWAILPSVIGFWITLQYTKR
Target sequence (P06935 1502-1679 limits assumed): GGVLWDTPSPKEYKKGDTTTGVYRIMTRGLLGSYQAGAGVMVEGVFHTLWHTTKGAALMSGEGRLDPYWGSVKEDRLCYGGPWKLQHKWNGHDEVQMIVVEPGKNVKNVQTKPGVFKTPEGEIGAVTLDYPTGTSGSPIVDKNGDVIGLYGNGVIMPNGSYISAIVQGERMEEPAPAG
Hsc70: Hsc70 inhibitors, probe displacement, primary screen, biochemical, fluorescence polarization (AID 568) | Hsc70 fluorescence polarization, probe displacement; higher % means a stronger effect; strong numbers were not always called active | one-dose displacement, % at 20 µM; IC50 in µM for titrated hits | 83,000 tested, under 10 active;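 active means displacement above 50% without optical interference and an IC50 on retest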;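 further: ATPase domain with a fluorescein-tagged ATP probe; 0% = vehicle and 100% = excess ADP; read after one hour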
MT1-MMP reporter: inhibitors of MT1-MMP promoter transcription, cell-based, luciferase reporter, luminescence (AID 618); MT1-MMP promoter luciferase reporter cells, luminescence; calls from a first round at 10 µM; hits with a dose series show EC50 in µM; 87,000 tested, 0.62% active;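 active means over half of the reporter light lost at 10 µM or EC50 under 50 µM; inactive means the rest and hits that failed the dose series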;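 further: actives suppress MT1-MMP promoter-driven transcription so potencies describe inhibitors; HT1080 fibrosarcoma cells; overnight exposure; toxic or luciferase-blocking compounds were not removed from the actives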
Active calls of the source: *; i = inactive; / = no result given. An unsorted share of the library; any-hit rate near 0.87%.

SMILES	WNV protease inh	Hsc70	MT1-MMP reporter
CCOc1ccccc1NC(=O)c1ccc(NC(=O)c2ccco2)cc1	/	1.3%	i
COc1ccc(C2CC(C(F)(F)F)n3nc(C(N)=O)c(Cl)c3N2)cc1OC (centres undefined)	-0.59	9.4%	i
C[N+]1=C2CCCCCN2C(O)(c2ccccc2)C1 (centres undefined)	-1.19	-3.9%	i
CCOC(=O)CN(Cc1ccc(OC)c(OC)c1)S(=O)(=O)c1ccc(OC)cc1	/	-2.3%	i
Cc1c(F)cccc1NS(=O)(=O)c1ccccc1C#N	-1.47	-11.8%	i
CCOC(=O)C(C(=O)Nc1cccc(C)n1)C1CCCCC1 (centres undefined)	0.51	-3.4%	i
COc1ccc(N2C3=[N+](CC2(C)O)c2ccccc2CC3)cc1 (centres undefined)	-0.03	-4.5%	i
Cc1ccc(Cn2nnc3c(=O)n(CC(=O)c4ccccc4)cnc32)cc1	-0.4	2.9%	i
CC1(C)CC(=O)C=C(Nc2ccccn2)C1	-0.34	-4.9%	i
CN(C)c1ccc(CNc2ncc(Br)cc2Br)cc1	/	2.2%	i
COc1ccc(CCN2C(=O)CC(N3CCOCC3)C2=O)cc1OC (centres undefined)	/	0.5%	i
O=C(CCC1CCCC1)N1CCN(C(=O)COc2ccccc2)CC1	1.48	3.9%	i
Cn1c(C(=O)N2CCN(c3ccccn3)CC2)cc2c(=O)n(C)c3ccccc3c21	1.68	-7.7%	i
NC(=O)SCC(=O)Nc1ccc(Cl)cc1	-1.4	2.8%	i
COc1ccc(CCNC(=O)CSc2nnc(-c3ccc(F)cc3)o2)cc1OC	-6.1*	-5.5%	i
CC1(C)Cc2ccccc2-c2nnc(SCC(=O)Nc3nc4ccccc4s3)n21	-0.2	-1.6%	i
COC(=O)CSc1nc(N)c(C#N)c(C(C)C)c1C#N	-0.72	-0.2%	i
CC(=O)Nc1ccc(C(=O)CSc2nnc3scc(-c4ccccc4)n23)cc1	2.08	3.2%	i
Cc1ccc2nc(N3CCN(C)CC3)c(C#N)cc2c1	1.39	1.8%	i
O=C(CN1C(=O)CCC1=O)Nc1nc(-c2ccccn2)cs1	1.86	-0.3%	i

A second format for part of the listing above:
O=C(CN1C(=O)CCC1=O)Nc1nc(-c2ccccn2)cs1
  WNV protease inh: 1.86; Hsc70: -0.3%; MT1-MMP reporter: i

CC1(C)Cc2ccccc2-c2nnc(SCC(=O)Nc3nc4ccccc4s3)n21
  WNV protease inh: -0.2; Hsc70: -1.6%; MT1-MMP reporter: i

COc1ccc(CCN2C(=O)CC(N3CCOCC3)C2=O)cc1OC (centres undefined)
  WNV protease inh: /; Hsc70: 0.5%; MT1-MMP reporter: i

The listing continues:
SMILES	WNV protease inh	Hsc70	MT1-MMP reporter
O=C(C/C(=N/O)c1ccccc1O)C(F)F	-1	3.7%	i
COCC(=O)N(C)c1nnc(-c2cnc(C)cn2)s1	-0.97	-5.0%	i
CC1CCCCC1NC(=O)C1CCN(S(=O)(=O)c2ccc3c(c2)CCC(=O)N3)CC1 (centres undefined)	0.89	-2.7%	i
COc1cc(Br)cc(CN2CCN(C=O)CC2)c1O	-0.77	-0.1%	i
O=C(NCN1CCCCC1)c1cnccn1	-1.2	-2.6%	i
COc1ccccc1N1CCN(C(=O)c2c(-c3ccccc3)noc2C)CC1	0.88	-5.1%	i
OCCCN=c1cc(-c2ccccc2)oc2ccc(Cl)cc12	/	2.7%	i
O=C(CSc1ncccn1)NC(=O)NCc1ccccc1	1.46	1.5%	i
CC(C)OC(=O)CSc1nnc(-c2cnccn2)n1C	-1.17	-3.6%	i
COc1ccc(S(=O)(=O)NCCc2ccccc2)cc1	/	1.2%	i
CN1CCN(C(=S)c2ccc(N(C)C)cc2)CC1	-0.93	3.8%	i
CCOC(=O)C(NC(C)=O)C(OC(C)=O)c1cccc(N(CCO)CCO)c1 (centres undefined)	-0.7	1.2%	i
O=C1CC(Nc2ccc3ccccc3c2)C(=O)N1Cc1ccccc1 (centres undefined)	/	-3.9%	i
CCC(Oc1ccccc1)C(=O)Nc1nnc(C)s1 (centres undefined)	2.2	1.8%	i
CC(C)(C)c1cc(=O)n2c(C#N)c(C#N)nc2[nH]1	-0.08	-4.4%	i
CC1(C)Cc2nc3sc4c(N(CCO)CCO)ncnc4c3cc2CO1	-0.28	4.7%	i
O=C(Nc1ccc(S(=O)(=O)NCc2ccccc2)cc1)Nc1ccc2c(c1)OCO2	-0.04	0.0%	i
Oc1c(C(c2ccco2)N2CCOCC2)sc2ncnn12 (centres undefined)	0.37	0.9%	i
Cc1nc(Oc2ccc(Cl)cc2)c2oc3ccccc3c2n1	/	0.5%	i
FC(F)(F)c1nnc2ccc(N3CCN(c4ccccc4)CC3)nn12	/	-2.2%	i
N#Cc1c(NC(=O)CCn2cnc3ccccc3c2=O)oc(-c2ccccc2)c1-c1ccccc1	-0.05	-0.3%	i
O=C(NCc1ccco1)c1cnc2n(c1=O)CCS2	0.39	-5.1%	i
Cc1oc2ccc(OC(=O)N3CCOCC3)cc2c1C(=O)OC(C)C	0.27	1.6%	i
COC(=O)CC1C(=O)NCCN1C(=O)CSc1nnc(Nc2ccc(OC)cc2)s1 (centres undefined)	-0.48	-3.1%	i
CC1(C)Cc2c(c(N3CCOCC3)nc3sc4c(NCc5ccco5)nnnc4c23)CS1	0.3	-16.3%	i
CCC1SC2=NC(C)=C(C(=O)OC)C(c3ccc(C)cc3)N2C1=O (centres undefined)	-0.1	7.5%	i
Cn1c(=O)c2c(-c3ccccc3)n3c4ccccc4ncc3c2n(C)c1=O	2.51	-1.0%	i
O=C(Nc1nc2c(s1)CCCC2)c1ccc2ncsc2c1	1.43	2.1%	i
COc1ccc(/C=N/n2cc(-c3ccc(OC)cc3)nc2N)cc1	0.00121	-3.2%	i
CC1(C)CC2(CC(C)(C)NC(=O)N2)NC(=O)N1	-1.26	2.4%	i
CC(=O)Nc1cc(C(C)(C)C)c(O)c(C(C)(C)C)c1	/	3.1%	i
COc1cccc(-c2nnc(SCc3ccc(C#N)cc3)n2Cc2ccco2)c1	-0.09	-8.7%	i
O=c1[nH]c2cc3c(cc2cc1CN(Cc1nnnn1CC1CCCO1)C1CCCCC1)OCO3 (centres undefined)	-0.71	2.9%	i
CN(C)S(=O)(=O)c1ccc2c(c1)nc1n2CCC1	/	1.5%	i
Cc1ccc(S(=O)(=O)N2CCN(C(=O)N3CCOCC3)C2C)cc1 (centres undefined)	-0.12	0.2%	i
COCCCNc1ncnc2ccc(C)cc12	/	-0.8%	i
COn1c(SCc2ccc(Cl)cc2)nc2ccccc2c1=O	/	-1.2%	i
CCOC(=O)c1cnc2cc(C)nn2c1-c1ccccc1	/	-5.6%	i
CC1CCCC(C)N1S(=O)(=O)c1ccc(S(=O)(=O)NCc2ccccc2)cc1 (centres undefined)	/	2.6%	i
CN(C)CCNc1ncnc2c1sc1nc(N3CCOCC3)c3c(c12)CC(C)(C)SC3	/	-4.1%	i
CCN(CC)CCCN(Cc1cc2cc3c(cc2[nH]c1=O)OCO3)C(=O)Nc1ccccc1OC	0.05	1.2%	i
Fc1ccc(CSc2nncn2NCc2ccc3c(c2)OCO3)cc1	0.9	-2.3%	i
CC(C)N(CCc1ccncc1)C(=O)Nc1ccc(F)cc1	-0.64	8.1%	i
CCCS(=O)(=O)N1CCCC(C(=O)NCc2ccc(C)cc2)C1 (centres undefined)	0.78	-2.0%	i
COc1cccc(NC(=O)CSc2nnnn2C(C)C)c1	0.48	2.7%	i
COc1ccccc1C1C2C(=O)N(c3ccccc3)C(=O)C2ON1c1ccccc1 (centres undefined)	0.35	-9.2%	i
COCCn1c(N)c(C#N)c2nc3ccccc3nc21	/	3.1%	i
CC(C)(C)NCCCCOc1ccc(F)cc1	0.13	-3.4%	i
Cc1noc(C)c1S(=O)(=O)Nc1ccc(C(=O)NC2CCCCC2C)cc1 (centres undefined)	-0.38	4.0%	i
COc1ccc(OC)c(NC(=O)Cn2cc(C#N)c3ccccc32)c1	2.12	-4.1%	i
COc1cc(C2C(C(C)=O)=C(O)C(=O)N2CCc2c[nH]c3ccccc23)ccc1O (centres undefined)	0.45	1.2%	i
Cc1cc(C)n(/N=C/c2c[nH]c3ccccc23)c(=O)c1	-0.05	-1.7%	i
COc1ccc(/C=N/n2c(C)cc(C)c(C(N)=O)c2=O)cc1	/	-5.2%	i
CCC(=O)NCc1cc(-c2nn(C)c(=O)c3ccccc23)ccc1C	/	0.5%	i
CCCOc1ccc(C2NC(=O)NC(c3ccccc3)=C2C(C)=O)cc1OCC (centres undefined)	/	6.4%	i
Cc1nc2ncnn2c(C)c1CCC(=O)NCc1ccccc1	-1.49	-1.4%	i
CCOC(=O)C1CCN(C(=O)c2ccc(SC)cc2OC)CC1	-0.95	4.9%	i
Cc1cc(OC(=O)N2CCOCC2)cc(C)c1Cl	0.15	4.1%	i
Cc1nn(-c2ncc(C(F)(F)F)cc2Cl)c(=O)n1-c1cccc(Cl)c1	/	5.3%	i
Oc1ccc(C2N=C(c3ccccc3)NC(c3ccccc3)=N2)cc1	/	1.6%	i

At a glance, part of the list above.
SMILES	WNV protease inh	Hsc70	MT1-MMP reporter
Cc1nc2ncnn2c(C)c1CCC(=O)NCc1ccccc1	-1.49	-1.4%	i
CCOC(=O)C1CCN(C(=O)c2ccc(SC)cc2OC)CC1	-0.95	4.9%	i

The listing picks up; the 2 compounds before the break are reprinted first.
SMILES	WNV protease inh	Hsc70	MT1-MMP reporter
Cc1nn(-c2ncc(C(F)(F)F)cc2Cl)c(=O)n1-c1cccc(Cl)c1	/	5.3%	i
Oc1ccc(C2N=C(c3ccccc3)NC(c3ccccc3)=N2)cc1	/	1.6%	i
CCN(CC)CCCN1C(=O)C(=O)/C(=C(/O)c2ccc(Cl)cc2)C1c1ccccn1 (centres undefined)	-0.14	-5.1%	i
O=C(O)c1ccc(Cl)c(S(=O)(=O)NCc2ccco2)c1	-0.84	3.6%	i
C=CCN(C(=O)CSc1nc2[nH]ncc2c(=O)n1-c1ccccc1OC)c1ccccc1	-0.18	3.3%	i
CC(C)(C)N(Cc1ccccc1)C(=O)c1ccc2c(c1)OCCO2	-0.85	-0.7%	i
COc1ccc(CCNC(=O)Cn2nnc(-c3cccs3)n2)cc1OC	-0.97	2.5%	i
CCC(C)n1c(S(=O)(=O)O)nc2ccccc21 (centres undefined)	/	-2.8%	i
c1ccc(Cn2c(-c3ccco3)nc3nc4ccccc4nc32)cc1	-0.56	-14.6%	i
N#Cc1nc(N)nc(N(c2ccccc2)c2ccccc2)n1	0.36	3.8%	i
CC(CN1CCOCC1)OC(=O)c1ccc(Br)cc1 (centres undefined)	0.95	5.2%	i
O=C1c2ccccc2-c2c1cccc2C(=O)N(CCO)CCO	1.26	2.2%	i
CC(=O)Nc1cccc(NS(=O)(=O)c2cccc3nsnc23)c1	-0.78	2.0%	i
Cc1nnc(C)c2c(C)n(C(C)c3ccccc3)c(C)c12 (centres undefined)	-1.11	-1.0%	i
CS(=O)(=O)N(CC(=O)N1CCCCC1)c1ccc2c(c1)OCO2	0.7	-2.1%	i
Cc1ccc(C(=O)c2ccc(O)cc2)cc1C	2.52	1.5%	i
Cc1ccc(S(=O)(=O)N2CCN(C(=O)C3CCCCC3)CC2)cc1	0.23	1.4%	i
CSCC[C@H](NC(=O)NCc1ccc(F)cc1)C(=O)O	0.87	2.3%	i
Cc1ccc(S(=O)(=O)N2CCN(c3nc(C(C)C)c4c(c3C#N)CC(C)(C)OC4)CC2)cc1	1.55	-51.4%	i
CC(C)(C)c1ccc(C(=O)NCCC(=O)NCc2ccco2)cc1	0.25	-3.0%	i
O=C(N/N=C/C=C/c1ccccc1)c1cnccn1	/	-6.1%	i
COc1nc2ccc(C)cc2cc1-c1noc(-c2cccnc2)n1	-0.59	-0.1%	i

Retrieved by compound from the entries so far (three):
SMILES	WNV protease inh	Hsc70	MT1-MMP reporter
N#Cc1nc(N)nc(N(c2ccccc2)c2ccccc2)n1	0.36	3.8%	i
Cc1ccc(C(=O)c2ccc(O)cc2)cc1C	2.52	1.5%	i
CSCC[C@H](NC(=O)NCc1ccc(F)cc1)C(=O)O	0.87	2.3%	i

Next records:
SMILES	WNV protease inh	Hsc70	MT1-MMP reporter
Cc1cc(C)n(-c2nnc(C)c(=O)[nH]2)n1	-0.41	-0.3%	i
CCn1c(NCc2ccc3c(c2)OCO3)nc2ccccc21	/	-3.1%	i
Cc1ccc(S(=O)(=O)N(C)c2ccc(NS(C)(=O)=O)cc2)cc1	0.36	-2.9%	i
Cn1c(=O)c2c(SCC(=O)c3ccccc3)nc(C3CC3)nc2n(C)c1=O	1.48	1.5%	i
O=C(Nc1ccccc1C(=O)NC(Cc1c[nH]c2ccccc12)C(=O)O)c1ccco1 (centres undefined)	-1.13	-4.9%	i
CCCc1nnc(SCC(=O)N2C(C)CCCC2C)n1CCCOC (centres undefined)	/	3.1%	i
Cc1c(NC(=O)C2CCCN2S(=O)(=O)c2ccccc2)c(=O)n(-c2ccccc2)n1C (centres undefined)	-0.71	2.7%	i
Cc1cccc(CSc2nnc(N)n2-c2ccccc2)c1	/	6.8%	i
CC1CCCCN1CC(=O)Nc1sc2c(c1C#N)CCC2 (centres undefined)	0.35	-1.6%	i
CCCOc1ccc(C2c3c(oc4cc(C)c(C)cc4c3=O)C(=O)N2CCCN(C)C)cc1OCC (centres undefined)	0.64	-1.8%	i

Screens deposited in PubChem by several laboratories.
